PrP 5UTR inh = inhibition of PrP 5' UTR reporter expression. cell-based PrP 5' UTR mRNA reporter, plate reader. inhibition, % (no concentration beside the values). 340,000 tested, 0.35% active. AID 488862;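 active means every replicate at 50% or more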;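 further: 0 = median of the neutral control wells; tested in H4 reporter cells; numbers are from one replicate; inactives centre near -14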
Sa RN4220 lethal = S. aureus RN4220 growth inhibition. 330,000 tested, 0.33% active. inhibition, % (concentration not given with the values). OD600, 16 h. AID 1259311;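 active means z-score of -3 or lower and OD600 up to 0.18 on both plates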;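 further: plate controls were untreated cells for no effect and reference antibiotic for full effect; stock transfer was 100 nL into about 80 µL; one replicate is shown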
Bead autofluor = counter-screen for toxin protease inhibitors: compound fluorescence. 360,000 tested, 3.1% active. compound autofluorescence counterscreen, microsphere flow cytometry; stronger effect = higher value. fluorescence intensity (test concentration not listed). AID 624483;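 active means at least 3 SD above the mean of all compounds, about 16000 in these data; inconclusive means too few beads counted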;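 further: 100 nL of 1 mM stock went into each well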
Mtb hypoxia rep = reduces hypoxia-regulated biosensor signal in M. tuberculosis. AID 1159583. M. tuberculosis hypoxia-regulated fluorescent reporter, fluorescence. fluorescence inhibition, % (test concentration not listed). 300,000 tested, 0.1% active;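 active means 35 to 45% if threefold the growth effect, above 45% if 1.5-fold the growth effect; inactive means the rest, general growth blockers included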;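 further: wells of about 50 µL received 100 nL stock; 0% = vehicle wells and 100% = reference inhibitor wells; whole bacteria with a GFP reporter of the hypoxia response; strong numbers were not always called active; many hits fall short of the cut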
ugtP null kill = kills S. aureus RN4220 lacking UgtP | S. aureus RN4220 ugtP deletion, OD600 growth, 16 h; some inactives read as strong as hits | growth inhibition, % (no concentration beside the values) | 330,000 tested, 0.54% active | AID 1259309;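 active means z-score under -3 and OD600 up to 0.15 on both plates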;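 further: plate controls were untreated wells for no effect and antibiotic for full effect; wells of about 80 µL received 100 nL stock; the first replicate is given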
BJeLR lethal = kills HRASV12-expressing BJeLR cells | BJeLR (HRASV12) viability, CellTiter-Glo ATP luminescence, 48 h; reference of the scale not given here | inhibition, % (concentration not given with the values) | 300,000 tested, 0.17% active | AID 1554;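 active means replicate mean above 50%; inconclusive means above 50% but judged a plate artefact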;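 further: 50 nL library stock added to about 25 µL; numbers are from one replicate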
Mtb hypoxia rep growth = also measured in Mtb hypoxia rep; calls as there; growth inhibition, %; measured here: M. tuberculosis growth (absorbance);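 0% = vehicle and 100% = reference antibiotic; read after six days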
The depositor's hits bear a star; ? = inconclusive; . = not tested or not shown. Compounds as they come; overall some 4.1% were active at least once.

Fields – PrP 5UTR inh	Mtb hypoxia rep	Sa RN4220 lethal	ugtP null kill	BJeLR lethal	Mtb hypoxia rep growth	Bead autofluor
- Cc1onc(-c2ccc(Cl)cc2Cl)c1-c1csc(N/N=C/c2ccccc2)n1
 : -4	.	.	.	-1	.	3915
- COC(=O)c1ccccc1-n1c(CCC(=O)O)ccc1-c1ccc(F)cc1
 : -17	12	12	76	4	5	3699
- CN(C)/C=N/c1ncnc2c1cnn2-c1ccc(C(F)(F)F)cn1
 : -55	.	.	.	3	.	11091
- Fc1ccc(OCCOCCN2CCNCC2)cc1
 : -16	3	2.6	7	-2	7	3821
- Nc1nnc(SCCN2C(=O)c3ccccc3S2(=O)=O)s1
 : -13	.	0.3	9	0	.	4575
- Cc1nn2c(=O)cc(CSc3nc4ccccc4[nH]3)nc2s1
 : -11	1	-16	-2	-4	7	5089
- O=C(O)CC(c1ccc(Cl)cc1)N1C(=O)CCC1=O (stereo unspecified)
 : -15	9	1.5	1	-2	12	5652
- COc1ccc(C2=NO[C@@H]3C(=O)N(c4ccc(C)cc4C)C(=O)[C@H]23)cc1OC
 : -19	8	4.1	-1	4	8	6483
- O=C(NNc1nc2cc3c(cc2s1)OCO3)c1ccccc1
 : -31	10	1.2	11	-12	0	5968
- CC(C)[C@H](NC(=O)c1ccccc1)C(=O)NCCc1ccccc1
 : -27	9	1.0	1	-2	3	3811
- COc1ccc(Nc2nc(-c3ccc(OC)cc3)cs2)cc1
 : -33	8	-0.7	0	6	5	4207
- COc1cccc(Nc2nc(C)cc(C)c2C#N)c1
 : -4	.	7.1	3	.	.	2965
- c1ccc(-c2ccc(CN3C[C@@H]4C(c5ccccc5)C5(c6ccccc6)CC4(C5)[C@H]3c3ccccc3)cc2)cc1 (stereo partly specified)
 : -9	.	.	.	7	.	4110
- COc1ccc(S(=O)(=O)N(Cc2cc3ccc(OC)cc3[nH]c2=O)CC2COCCO2)cc1 (stereo unspecified)
 : -21	.	3.3	0	.	.	2812
- CCOC(=O)N1CCN(c2cc(=O)n(-c3cccc(C)c3)c(=O)[nH]2)CC1
 : -11	-3	0.1	5	-7	-13	2418
- COc1ccc(/C=N/NC(=O)C[n+]2ccccc2)c(OC)c1
 : -22	.	.	.	-2	.	4309
- NC(=O)c1ccc(NC(=O)COC(=O)CCN=C2NS(=O)(=O)c3ccccc32)cc1
 : -24	8	1.0	3	.	11	3984
- Cc1ccc(C(=O)c2c(NC(=O)c3ccncc3)sc3c2CCCC3)cc1
 : -12	16	4.5	-23	-5	14	?
- CC1NC(=S)N(Cc2ccccc2)C1=O (stereo unspecified)
 : -20	9	4.3	1	4	4	2885
- O=c1[nH]nnc2cc(Cl)ccc12
 : -16	2	1.8	1	.	8	4091
- Cc1ccc(C=NNC(=O)c2c(C)nc3ccc(Br)cn23)cc1
 : .	17	1.6	1	.	9	.
- O=C(c1sccc1-c1ccccc1)N1CCN(S(=O)(=O)c2ccccc2)CC1
 : -3	5	5.5	8	-3	9	5662
- CCN(CC)S(=O)(=O)c1ccc(Oc2ccc(S(=O)(=O)N(CC)CC)cc2)cc1
 : -17	0	-0.4	1	21	-5	?
- CCOC(=O)c1ccc(NC(=O)C2CCCN(S(=O)(=O)c3cnc[nH]3)C2)cc1 (stereo unspecified)
 : -21	.	4.7	5	4	.	4039
- COc1cc(/C=N\NC(=O)c2cccc(Cl)c2)ccc1Oc1ccc([N+](=O)[O-])cn1
 : -1	.	.	.	-7	.	4293
- Cc1ccc2nc(SCC(=O)NCc3ccco3)c(C)cc2c1
 : -16	4	8.8	3	-4	5	2608
- COCCn1c(SCC(=O)Nc2c(C)n(C)n(-c3ccccc3)c2=O)nc2ccccc2c1=O
 : -11	5	2.1	0	.	7	?
- COc1ccccc1NC(=O)C(C)OC(=O)CSCC(=O)Nc1ccc(C)cc1C (stereo unspecified)
 : -41	-4	-3.0	-1	.	-6	4079
- CCCCN(C(=O)CC1CCCC1)c1c(N)n(CCC)c(=O)[nH]c1=O
 : -9	0	2.3	0	.	-4	9106
- Cc1cc(C(F)(F)F)nc(CCNC(=O)C2CCC(=O)N(Cc3cccc(F)c3)C2)n1 (stereo unspecified)
 : -13	11	1.6	13	2	-7	4317

Shown as tab-separated lines: part of the list above
canonical_smiles	PrP 5UTR inh	Mtb hypoxia rep	Sa RN4220 lethal	ugtP null kill	BJeLR lethal	Mtb hypoxia rep growth	Bead autofluor
Cc1ccc(C=NNC(=O)c2c(C)nc3ccc(Br)cn23)cc1	.	17	1.6	1	.	9	.
CCOC(=O)c1ccc(NC(=O)C2CCCN(S(=O)(=O)c3cnc[nH]3)C2)cc1 (stereo unspecified)	-21	.	4.7	5	4	.	4039
COCCn1c(SCC(=O)Nc2c(C)n(C)n(-c3ccccc3)c2=O)nc2ccccc2c1=O	-11	5	2.1	0	.	7	?
Cc1ccc2nc(SCC(=O)NCc3ccco3)c(C)cc2c1	-16	4	8.8	3	-4	5	2608
O=C(c1sccc1-c1ccccc1)N1CCN(S(=O)(=O)c2ccccc2)CC1	-3	5	5.5	8	-3	9	5662

(continued)
Fields – PrP 5UTR inh	Mtb hypoxia rep	Sa RN4220 lethal	ugtP null kill	BJeLR lethal	Mtb hypoxia rep growth	Bead autofluor
- CCCCCC(=O)NN=C1CCN(Cc2ccccc2)CC1
 : -23	2	5.0	8	3	-2	9308
- O=C1CN=C(c2ccccc2)c2cc(Br)ccc2N1Cc1cc(=O)n2ccccc2n1
 : 0	1	-0.6	5	-22	4	2586
- COc1ccccc1C1CC(=O)NC(SCC(=O)Nc2ccccc2)=C1C#N (stereo unspecified)
 : -3	4	5.6	13	13	1	4934
- Cc1ccc(NC(=O)CCNS(=O)(=O)c2ccc3c(c2)CCC(=O)N3)cc1F
 : 4	-3	12	16	-8	-6	4202
- O=C(CSc1nnc(-c2cccs2)o1)c1cccs1
 : -91	14	4.6	-21	19	14	12866
- Cn1cc(S(=O)(=O)N2CCc3ccccc32)cc1C(=O)NC1CCCCC1
 : -23	4	4.9	5	-1	0	5570
- CCC(C)NS(=O)(=O)c1ccc(N)cc1 (stereo unspecified)
 : -19	15	6.5	-1	4	16	5313
- COc1cc(CC(=O)OCc2ccccc2F)cc(OC)c1OC
 : 0	5	1.3	2	7	-2	3711
- COc1cc(OC)c(OC)cc1CNc1cc(C)ccc1OC
 : -1	-2	-4.0	0	0	8	11305
- Cc1noc(C)c1C(=O)OCC(=O)/C=C1/N(C)c2ccccc2C1(C)C
 : -12	9	4.7	4	.	7	3864
- CC1(C)CC(C(N)=S)CCO1 (stereo unspecified)
 : -11	13	6.7	9	-5	9	5462
- COc1ccc(OC)c(NC(=O)CSc2nc(N3CCOCC3)nc(N3CCOCC3)n2)c1
 : -20	3	0.9	2	1	-8	5223
- Cc1cc(NC(=O)c2ccccc2)ncc1NC(=O)c1cccs1
 : -26	7	4.2	8	14	3	2234
- O=C(O)Cn1c2ccccc2c2n[nH]c(=S)nc21
 : 0	-3	3.1	0	-2	-6	3012
- Cc1cc(S(=O)(=O)NC(C)C)ccc1OCC(=O)NCc1ccccc1
 : 13	4	8.0	8	-11	-4	4609
- CC(=O)c1ccc(NC(=S)NCc2cccnc2)cc1
 : -28	-4	-0.7	5	-7	17	4519
- Cc1cccc2cc(CN(CC3CCCO3)C(=O)c3cccs3)c(=O)[nH]c12 (stereo unspecified)
 : -1	-5	0.9	6	-7	1	4296
- O=C(O)CSc1nnc(-c2ccccc2Br)n1-c1cccc(C(F)(F)F)c1
 : -10	10	1.5	3	4	7	4041
- COc1ccc(C(=S)N2CCNCC2)cc1
 : 2	.	11	3	-4	.	3354
- CC(=NNC(=O)c1ccncc1)c1ccccc1O
 : 20	6	-0.3	-2	.	7	4032
- Cc1nnc(SCc2ccc3c(c2)OCO3)s1
 : -32	6	5.3	5	0	9	21079*
- COc1ccc(CNC(=O)CN(C(=O)CCC(=O)Nc2nccs2)c2ccc(C)cc2)cc1
 : -17	16	0.0	-3	-7	3	3084
- Cc1ccccc1N(CC(=O)NC(C)(C)C)C(=O)CCC(=O)Nc1nccs1
 : 5	1	2.5	2	-10	-7	3493
- CN(C)S(=O)(=O)NC(c1ccccc1)c1ccccc1
 : -45	7	15	2	7	14	9447
- CCOc1ccc2c(c1)n(CO)c(=S)n2CO
 : -13	5	1.8	-1	.	1	22336*
- CNC(=O)C1=C(C)n2c(nc3ccccc32)NC1c1ccc(OC)cc1 (stereo unspecified)
 : -15	0	-2.4	-8	-12	7	7418
- COc1ccccc1/C=C1\SC(=S)N(CCC(=O)N2CCCCC2CCO)C1=O (stereo unspecified)
 : -9	6	0.9	-2	-5	1	5227
- O=C(COc1ccc2c3c(c(=O)oc2c1)CCC3)NCc1ccncc1
 : -2	4	-0.3	2	0	-4	3446
- O=C(Nc1ccc(S(=O)(=O)N2CCCC2)cc1)C1CCCN1C(=O)c1cccs1 (stereo unspecified)
 : -8	12	2.5	11	-7	0	4729
- O=C(CCC1CCCN(C(=O)Cc2ccc(F)cc2)C1)N1CCN(c2ccccn2)CC1 (stereo unspecified)
 : 1	11	3.2	1	14	5	4167
- Cc1c(N=Cc2c(O)n(Cc3ccc(F)cc3)c(=O)[nH]c2=O)c(=O)n(-c2ccccc2)n1C
 : -8	-4	3.0	2	-4	15	9199
- O=C(CSCc1ccc(Cl)cc1)Nc1ccc(S(=O)(=O)N2CCOCC2)cc1
 : 1	16	6.4	3	4	3	2371
- S=C(NCc1cccnc1)Nc1cccc(Cl)c1
 : -24	9	-17	-9	-10	3	3285
- Nc1nc(NCc2ccccc2)nc(NCc2ccccc2)c1[N+](=O)[O-]
 : -14	5	6.4	5	-3	-1	7293
- COc1ccc(CC(=O)Nc2ccc3c(c2)CCC3)cc1
 : -13	3	-2.1	-2	7	7	2565
- O=C(O)c1ccc(CN2C(=O)c3ccc(Oc4ccc([N+](=O)[O-])cc4)cc3C2=O)cc1
 : -11	2	5.4	22	-8	-2	.
- O=C1CCC(=O)N1c1ccc(NC2CCN(Cc3ccccc3)CC2)c([N+](=O)[O-])c1
 : -35	9	2.2	6	1	-1	4858
- Cc1noc(C)c1COC(=O)c1cc2ccccc2cc1O
 : -13	9	10	22	9	2	9315
- COc1cc2c(cc1O)CCN(C(=O)c1ccco1)C2C (stereo unspecified)
 : -10	3	-0.3	5	2	1	6268
- Cc1c(S(=O)(=O)Nc2cccc3ccccc23)c(=O)n(C)c(=O)n1C
 : -5	14	6.3	2	2	3	?
- CC(=O)Nc1ccc2c(c1)nc1n2CCN(C2CCCCC2)C1
 : -58	7	5.7	13	.	4	3065
- COC(=O)C1=C(c2cccc(OC)c2OC)C[C@@H]2CC[C@H]1N2C(=O)NCc1ccc(C(F)(F)F)cc1
 : -26	.	.	.	-7	.	4096
- COc1cc(C(=O)NCC(c2ccco2)N2CCOCC2)cc(OC)c1OC (stereo unspecified)
 : -16	15	1.6	0	-1	-3	6557
- Cc1occc1C(=O)NC(C)C1CCCO1 (stereo unspecified)
 : -9	4	6.0	8	4	6	11111
